Source: PubChem BioAssay
Beta apoptosis = beta cell apoptosis inhibition | INS-1E cytokine-induced death, ATP luminescence, 48 h; percent of positive-control rescue, neutral wells zero | protection from apoptosis, % (concentration not given with the values) | actives 0.8% (n = 300,000) | AID 435005;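 active means all replicates at 75% or more, or half of them and the mean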;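 further: 0% = cytokine-treated negative control wells and 100% = positive control rescue; higher means more ATP so stronger rescue from cytokine killing; wells of about 40 µL received 100 nL stock; the first replicate is given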
LANA-H2B inh = blocks KSHV LANA binding to histone H2A/H2B | Q9QR71 | cell-free LANA-H2A/H2B peptide, fluorescence polarization | inhibition, % (concentration not given with the values) | actives 0.6% (n = 320,000); in the data active means inhibition mostly above about 10%, no sharp cut-off; inactive means mostly below about 6.7%;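 further: stock transfer was 7.5 nL into about 10 µL; 0% = median of vehicle wells and 100% = median of positive control wells; one replicate is shown; the record names a cut of 25% in any replicate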
Beta2AR agonist = activates human beta-2 adrenergic receptor causing internalization; P07550; Am2.2-beta2AR cells, FAP receptor internalization, flow cytometry; reference of the scale not given here; response, % (concentration not given with the values); actives 0.43% (n = 340,000); AID 504454;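 active means response above a set limit, near 3 SD of response in nonfluorescent compounds, cut at about 42% in these data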;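 further: stock transfer was 100 nL into about 11 µL; a reference agonist was the positive control; negative values mostly stem from fluorescent compounds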
Target sequence (P07550 whole entry, looked up): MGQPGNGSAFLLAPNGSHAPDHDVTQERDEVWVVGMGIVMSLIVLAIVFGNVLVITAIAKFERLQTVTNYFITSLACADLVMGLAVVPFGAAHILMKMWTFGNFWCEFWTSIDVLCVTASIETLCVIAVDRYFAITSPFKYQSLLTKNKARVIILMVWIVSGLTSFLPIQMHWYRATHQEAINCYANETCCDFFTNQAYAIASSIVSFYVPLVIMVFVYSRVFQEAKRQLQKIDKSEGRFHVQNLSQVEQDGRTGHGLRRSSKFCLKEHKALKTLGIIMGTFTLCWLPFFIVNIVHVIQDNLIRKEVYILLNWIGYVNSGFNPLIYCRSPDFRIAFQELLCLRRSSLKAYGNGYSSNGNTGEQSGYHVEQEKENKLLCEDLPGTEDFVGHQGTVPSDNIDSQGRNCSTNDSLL
T cruzi inh = blocks replication of Trypanosoma cruzi; inhibition, % (concentration not given with the values); actives 1.4% (n = 300,000); T. cruzi beta-gal in NIH3T3, luminescence, 90 h;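 active means mean inhibition across valid replicates above about 55%, limit read from the data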;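 further: signal also drops with host cell toxicity which is not excluded here; 0% = plate median of DMSO wells and 100% = zero luminescence signal; higher percent means less beta-gal luminescence so fewer parasites; stock transfer was 50 nL into about 50 µL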
Ecoli rRNA inh = inhibits bacterial ribosomal RNA function over humanized ribosomes; E. coli WT GFP vs humanized-ribosome RFP mutants, fluorescence, 24 h; stronger effect = lower value; DMSO median 0, no signal -100; AID 720706; GFP signal change (wild-type ribosome), % (test concentration not listed); actives 1.6% (n = 350,000);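 active means significant combined selectivity score with lowered wild-type GFP, culture density cut under 30%, mutant RFP and density less affected; inactive means any of these conditions unmet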; further: one replicate is shown; some compounds called inactive have numbers as strong as hits
ALR inh = human ALR oxidase inhibition via reduced H2O2 | actives 3.8% (n = 290,000) | purified ALR, DTT oxidation, H2O2 HRP-luminol luminescence | AID 485317 | inhibition, % (concentration not given with the values);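 active means mean and each replicate at 75% or more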;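 further: stock transfer was 7.5 nL into about 7.5 µL; 0% = neutral wells and 100% = wells with inactivated enzyme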
Target sequence (P55789 whole entry, looked up): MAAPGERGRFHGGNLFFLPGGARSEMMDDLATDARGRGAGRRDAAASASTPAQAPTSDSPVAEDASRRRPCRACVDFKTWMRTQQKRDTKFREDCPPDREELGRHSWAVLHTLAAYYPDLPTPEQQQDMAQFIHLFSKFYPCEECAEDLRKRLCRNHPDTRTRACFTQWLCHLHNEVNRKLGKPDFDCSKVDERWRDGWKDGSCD
A1 inh = inhibitors of the anti-apoptotic protein A1, read as caspase activation | MEF A1-2A-BIM cells, Caspase-Glo 3/7 luminescence, 3 h; percent of clofoctol response, vehicle zero | caspase activation, % (no concentration beside the values) | actives 0.066% (n = 330,000) | AID 2462;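 active means over half of replicate activation scores above 10%, or exactly half above 10 with the replicate mean above 10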;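 further: wells of about 30 µL received 50 nL stock; many hits fall short of the cut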
Calb FLC = C. albicans growth modulation with fluconazole; C. albicans CaCi-2 (fluconazole-resistant clinical isolate) + fluconazole, Alamar Blue growth, 48 h; growth inhibition, % (test concentration not listed); actives 0.57% (n = 300,000);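 active means most replicates above 75%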;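 further: all wells also contain fluconazole at 8 µg/ml as a sub-toxic cotreatment; 0% = median of DMSO wells and 100% = median of geldanamycin control wells; wells of about 8 µL received 7.5 nL stock; the first replicate is given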
Ecoli rRNA inh OD600 = recorded beside Ecoli rRNA inh, whose call it bears; OD600 change, %; measured here: OD600 growth;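 optical density of the mix in the first replicate; 0 = DMSO median and -100 = no signal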
Ecoli rRNA inh RFP = also measured in Ecoli rRNA inh; calls as there; RFP signal change, %; measured here: RFP humanized mutant strains;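 first replicate; 0 = DMSO median and -100 = no signal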
Starred values were filed as active, the others as inactive; . = not tested or not shown.

1. Cc1ccc(CS(=O)(=O)CCC(=O)NCCC(C)C)cc1
2. CC(C)=CC(=O)Nc1ccc(Cl)cc1
3. S=C(Nc1ccc(Cl)c(Cl)c1)N1CCCC1
4. CN1CCN(S(=O)(=O)c2ccc(NS(=O)(=O)c3ccccc3)cc2)CC1
5. N#C/C(=C\c1ccc(-c2ccc(F)cc2)o1)C(=O)Nc1nc(-c2cccs2)cs1
6. COc1cc(/C=N/O)cc(Cl)c1OC
7. COC(=O)Cn1cnc2c(nnn2-c2ccc(C)cc2)c1=O
8. CC(C)(/C=N/O)N(O)C=C1C=CC(=O)C=C1
9. COc1ccc(OCc2cc(C(=O)N(C)Cc3cc(C4CC4)n[nH]3)no2)c(Cl)c1
10. Cc1ccc2cc(/C=N/NC(=O)[C@H]3C[C@@H]3c3ccccc3)c(Cl)nc2c1

screen / no.,1,2,3,4,5,6,7,8,9,10
LANA-H2B inh,0.8,-1.1,-5.7,-3.0,1.5,-2.4,1.8,-0.8,-1.1,3.0
Ecoli rRNA inh OD600,.,9,14,4,-4,1,.,10,-21,12
Ecoli rRNA inh,.,12,6,4,-2,12,.,11,-3,12
Beta2AR agonist,0,9,-3,-4,2,3,5,-7,1,1
T cruzi inh,-12,-4,-15,0,-55,7,-4,0,3,55*
Beta apoptosis,-14,1,-3,3,1,0,-4,-7,-6,6
Calb FLC,0,-6,2,-2,-7,1,-2,-3,21,-3
A1 inh,0.4,-4.3,-0.7,0.8,-1.3,-0.7,0.0,-0.1,0.1,0.6
Ecoli rRNA inh RFP,.,-1.5,-6.2,-1.4,-0.6,1.0,.,12,4.5,0.0
ALR inh,1,-2,-4,2,-4,2,1,99*,-8,3

11. COc1ccc(N2C3=C(C(=O)CC(C)(C)C3)C(c3ccccc3OC)C3=C2CC(C)(C)CC3=O)cc1
12. CC(=O)Oc1ccc(C(=O)[C@H]2[C@H]3C(=O)N(c4cccc5ccccc45)C(=O)[C@H]3[C@@H]3C=CC=NN32)cc1
13. Cc1c(Cl)cccc1NC(=O)COC(=O)C12CC3CC(CC(O)(C3)C1)C2
14. O=C(N/C(=C/c1ccc(F)cc1)C(=O)N1CCCCC1)c1ccco1
15. COC(=O)[C@H]1CN(C(=O)c2ccccc2)C(=O)N1
16. CCCCn1c(N)c(N(CC)C(=O)/C=C/c2ccco2)c(=O)[nH]c1=O
17. CCN(CC)c1ncnnc1-c1ccccc1
18. Cc1ccc(Cl)c(NC(=O)COC(=O)c2nn(C)c(=O)c3ccccc23)c1Cl
19. NC(=O)c1ccc2nc(-c3ccccc3)c(-c3ccccc3)nc2c1
20. Cc1cc(C)c(S(=O)(=O)Nc2nccs2)c(C)c1

screen / no.,11,12,13,14,15,16,17,18,19,20
LANA-H2B inh,5.4,4.1,-1.1,-4.0,3.1,-3.8,-1.1,-4.9,-1.2,-8.2
Ecoli rRNA inh OD600,-3,.,-4,5,9,8,1,12,-3,-13
Ecoli rRNA inh,-7,.,7,4,3,17,3,18,4,-8
Beta2AR agonist,5,8,-2,-15,0,2,0,-5,4,-4
T cruzi inh,15,-25,.,-14,-4,-11,-9,.,11,4
Beta apoptosis,-2,-14,-1,-10,-5,-3,-2,5,-1,-8
Calb FLC,25,21,.,-4,-2,-1,-4,.,3,-3
A1 inh,0.3,-0.5,-0.6,0.0,0.6,-0.6,0.8,-0.4,-1.0,1.2
Ecoli rRNA inh RFP,-0.4,.,3.1,0.1,6.4,1.3,0.1,-0.4,2.5,13
ALR inh,-45,-5,-3,-2,2,-10,-16,2,-4,-4

21. O=C(CSc1nc2ccccc2c(=O)n1Cc1ccco1)NCc1ccccc1
22. CC(=O)N1CCC2(CC1)C(C#N)=C(N)Oc1n[nH]c(C(F)(F)F)c12
23. CCCCn1c(N)c(N(CC(C)C)C(=O)CSC(C)C(=O)Nc2cc(C)on2)c(=O)[nH]c1=O (stereo not drawn)
24. CC(C)CN(C(=O)CSc1nnc(-c2ccco2)o1)c1c(N)n(Cc2ccccc2)c(=O)[nH]c1=O
25. CC(=C1C2C=CC1C1C(=O)NC(=O)C21)c1ccccc1 (stereo not drawn)
26. O=C(CN1C(=O)c2cccc([N+](=O)[O-])c2C1=O)N1CCN(S(=O)(=O)c2ccccc2)CC1
27. COc1ccccc1C(=O)N/N=C(\C)c1ccc(NC(=O)Cc2ccccc2)cc1
28. COc1ccc(Br)cc1C(=O)NC(=S)Nc1ccc(Cl)c(C(=O)O)c1
29. COC(=O)c1ccc(C)c(NC(=O)CCc2ccc(OC)c(OC)c2)c1
30. CCOC(=O)c1sc(NC(=O)CN2CCN(c3ccccc3)CC2)nc1C

screen / no.,21,22,23,24,25,26,27,28,29,30
LANA-H2B inh,-3.5,2.2,-2.6,5.0,4.4,9.2,9.7,6.0,4.9,-14
Ecoli rRNA inh OD600,.,.,10,10,.,10,-10,3,.,-15*
Ecoli rRNA inh,.,.,11,12,.,10,3,5,.,-20*
Beta2AR agonist,-5,-3,1,-1,-2,2,-9,7,9,-6
T cruzi inh,13,-5,-6,-11,0,.,0,-5,1,4
Beta apoptosis,9,-1,-2,2,-2,-1,-6,-1,-1,-1
Calb FLC,1,4,-12,-1,-6,.,-5,9,-16,31
A1 inh,-0.4,0.4,-0.2,1.9,0.3,1.4,0.1,-0.3,-0.6,0.2
Ecoli rRNA inh RFP,.,.,3.4,12,.,-1.6,-2.8,1.1,.,4.9*
ALR inh,4,0,4,-9,-1,-19,-2,11,1,46

31. CC1(C)CC(NS(=O)(=O)c2ccc(Cl)cc2)CC(C)(C)N1
32. Nc1nonc1NC(=O)CSc1nc2ccccc2s1
33. N#C/C(=C\c1ccc(OCc2ccc(Br)cc2)cc1)C(=O)Nc1cccc(C(=O)O)c1
34. Cc1ccc(S(=O)(=O)N2CCN(C(=O)CSc3nnc(C)c(=O)[nH]3)CC2)cc1
35. NC(=O)CC(NC(=O)Cc1ccc(Br)cc1)c1ccc(NCCc2ccc(F)cc2)c([N+](=O)[O-])c1 (stereo not drawn)
36. CC(=O)c1ccccc1C(=O)NCc1cccnc1
37. COc1cccc(N2CCN(C(=S)NCCc3ccccc3)CC2)c1
38. CCCC(=O)Nc1cccc(-c2nc3ccccc3c(=O)o2)c1
39. O=C(Nc1ccc(N2CCOCC2)cc1)c1ccc2c(c1)OCO2
40. COc1ccccc1-n1cc(C(=O)c2cc(Cl)ccc2O)cc(C#N)c1=O

screen / no.,31,32,33,34,35,36,37,38,39,40
LANA-H2B inh,-8.7,-1.3,4.0,5.6,1.5,-1.5,-0.5,-0.2,1.0,7.9
Ecoli rRNA inh OD600,10,.,-2,.,19,.,.,14,10,6
Ecoli rRNA inh,14,.,-13,.,9,.,.,10,9,10
Beta2AR agonist,-5,-1,-6,-6,1,1,-1,-4,1,1
T cruzi inh,-13,-27,-11,2,4,6,3,-25,4,-6
Beta apoptosis,0,-6,4,-2,-5,-3,-7,-3,-4,.
Calb FLC,1,-6,-4,0,-5,-3,-12,-4,-18,-7
A1 inh,0.7,-1.2,-0.6,0.1,-0.5,0.3,-0.6,-3.9,-3.0,-0.5
Ecoli rRNA inh RFP,-1.3,.,0.1,.,4.2,.,.,-0.8,1.6,14
ALR inh,-18,98*,5,-1,0,-11,-1,-1,-13,4

Retrieved one by one from the entries so far:
32. Nc1nonc1NC(=O)CSc1nc2ccccc2s1
16. CCCCn1c(N)c(N(CC)C(=O)/C=C/c2ccco2)c(=O)[nH]c1=O
18. Cc1ccc(Cl)c(NC(=O)COC(=O)c2nn(C)c(=O)c3ccccc23)c1Cl
2. CC(C)=CC(=O)Nc1ccc(Cl)cc1
31. CC1(C)CC(NS(=O)(=O)c2ccc(Cl)cc2)CC(C)(C)N1
38. CCCC(=O)Nc1cccc(-c2nc3ccccc3c(=O)o2)c1

screen / no.,32,16,18,2,31,38
LANA-H2B inh,-1.3,-3.8,-4.9,-1.1,-8.7,-0.2
Ecoli rRNA inh OD600,.,8,12,9,10,14
Ecoli rRNA inh,.,17,18,12,14,10
Beta2AR agonist,-1,2,-5,9,-5,-4
T cruzi inh,-27,-11,.,-4,-13,-25
Beta apoptosis,-6,-3,5,1,0,-3
Calb FLC,-6,-1,.,-6,1,-4
A1 inh,-1.2,-0.6,-0.4,-4.3,0.7,-3.9
Ecoli rRNA inh RFP,.,1.3,-0.4,-1.5,-1.3,-0.8
ALR inh,98*,-10,2,-2,-18,-1

Continued:
41. CNc1ccccc1C(C)(C)c1cc(-c2cccc(Br)c2)no1
42. CN(C)C(=O)N=NC(=O)N(C)C
43. Cc1c(CC(=O)O)c(=O)oc2cc(OCc3ccc(Br)cc3)ccc12
44. CC(=O)c1cc2c(cc1NC(=O)CN1CCOCC1)OCO2
45. CC(=O)NC1=NN(C(C)=O)C2(CCCC2)S1
46. O=C(NCCC1=CCCCC1)C1CC(=O)N(C2CCCCCC2)C1 (stereo not drawn)
47. CCC1CCCCN1CCNC(=O)CNS(=O)(=O)c1ccc2nc(C)sc2c1 (stereo not drawn)
48. Cc1ccc(-n2ncc3c(=O)n(CC(=O)NC4CCCCC4)cnc32)cc1
49. COc1ccc(CNC(=O)COC(=O)c2ccc(S(=O)(=O)N3CCCCC3)cc2)cc1
50. COc1ccc(CN(C)Cc2nc3scc(-c4ccccc4)c3c(=O)[nH]2)cc1OC

screen / no.,41,42,43,44,45,46,47,48,49,50
LANA-H2B inh,-5.1,-13,6.6,2.0,2.3,0.5,1.2,-4.4,-3.2,0.3
Ecoli rRNA inh OD600,-38,.,-14,.,2,1,.,.,18,.
Ecoli rRNA inh,-22,.,-17,.,9,-2,.,.,12,.
Beta2AR agonist,3,2,3,-4,-8,2,-1,0,3,-3
T cruzi inh,51,.,1,1,4,1,-15,-18,.,5
Beta apoptosis,.,-2,0,-4,-4,-2,-1,1,-3,5
Calb FLC,22,.,-2,-7,16,-4,-1,-1,.,2
A1 inh,0.2,-0.5,0.9,1.1,0.0,0.2,0.1,0.3,-0.1,0.6
Ecoli rRNA inh RFP,66,.,-4.6,.,0.2,0.2,.,.,3.5,.
ALR inh,-18,-22,-6,0,4,-6,-69,-1,.,-1

51. CCOC(=O)C1=C(C)N(CCCCCC(=O)O)C(=O)NC1c1ccc(Cl)cc1 (stereo not drawn)
52. Cc1cccc(NC(=O)c2cc([N+](=O)[O-])ccc2NCC2CCCO2)n1 (stereo not drawn)
53. CCOC(=O)c1c(NC(=O)CN2C(=O)NC3(CCCCC3C)C2=O)sc(C)c1CC (stereo not drawn)
54. CC(=O)Nc1ccc(NC(=O)C(NS(=O)(=O)c2cccc3nsnc23)C(C)C)cc1 (stereo not drawn)
55. COc1ccc(C)cc1S(=O)(=O)Nc1cc(Cl)ccc1Cl

screen / no.,51,52,53,54,55
LANA-H2B inh,2.2,-319,-3.2,2.8,13
Ecoli rRNA inh OD600,.,-26,-1,3,.
Ecoli rRNA inh,.,-22,-2,2,.
Beta2AR agonist,-1,-7,6,-6,-2
T cruzi inh,-1,13,66*,-7,7
Beta apoptosis,0,6,-3,2,1
Calb FLC,21,38,.,-8,1
A1 inh,0.7,-0.6,-0.4,0.4,0.3
Ecoli rRNA inh RFP,.,-0.6,-1.7,-1.4,.
ALR inh,.,-3,-2,-8,-13

Down the list, from the results shown:
T cruzi inh for nos. 51–55: -1, 13, 66*, -7, 7

This is a subset; the hit share may differ from the screen's.
